ClpP mod – qHTS Assay for Activators of ClpP. ATP-dependent Clp protease proteolytic subunit (Bacillus subtilis (strain 168)), P80244. purified B. subtilis ClpP, FRET peptide cleavage, 20 min. Potency, µM (doses to about 57.5 µM), without a hit: at the top dose activity change, negative = active. 340,000 tested, 1.9% active. AID 651965, 2013; active = well fitted falling curve with a large enough effect; inconclusive = small, poorly fitted or top-dose-only effect; inactive = no such curve, though single readings can be large or run the other way; also: potency is read from the fitted curve at half-maximal effect; the source files actives as falling curves though it sought activators and does not explain the sign; nearly all actives have a fitted effect of over 65% in size; many hits overshoot -100%
Target sequence (P80244 whole entry, looked up): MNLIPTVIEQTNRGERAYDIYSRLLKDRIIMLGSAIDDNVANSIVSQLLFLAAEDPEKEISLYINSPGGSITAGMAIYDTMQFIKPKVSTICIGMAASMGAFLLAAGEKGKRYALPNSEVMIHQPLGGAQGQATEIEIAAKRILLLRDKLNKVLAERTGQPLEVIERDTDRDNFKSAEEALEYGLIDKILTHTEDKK
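Buffer: 100 mM Tris/HCl pH8, 100 mM KCl, 0.05% low protease BSA, 2.5% glycerol, 0.01% Tween-20. ClpP 10 microg/mL final; 20 min RT; delta FRET normalized to ADEP and DMSO controls.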
gsp ag – qHTS for Agonist of gsp, the Etiologic Mutation Responsible for Fibrous Dysplasia/McCune-Albright Syndrome: qHTS. gsp mutant cells, cAMP HTRF, 30 min; control for the full effect not named in the record. Potency, µM (series often up to 76.9 µM), for inactives: at the highest dose activation (cAMP increase), hits mostly activators. 340,000 tested, 0.13% active. AID 624287, 2012; active = well fitted activation curve with a large enough effect; inconclusive = small, poorly fitted or top-dose-only effect, or another doubt; inactive = no such curve, though single readings can be large or run the other way; cell line not stated here;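 also: phosphodiesterase inhibitor Ro 20-1724 added with compounds to block cAMP breakdown; potency is read from the fitted curve at half-maximal effect; nearly all actives have a fitted effect of over 60% in size; about a fifth of the inactives were tested at one dose only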
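Cells stably selected in G418 were plated at 2000/well, grown 16-24 hr, then given compounds in DMSO with the PDE inhibitor […] (300 uM solution added) for 30 min at 37C; cAMP was read by HTRF.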
gsp antag – qHTS for Antagonists of gsp, the Etiologic Mutation Responsible for Fibrous Dysplasia/McCune-Albright Syndrome: qHTS | gsp-mutant cells, cAMP HTRF, 30 min; control for the full effect not named in the record | Potency, µM (titrated, usually from 76.9 µM), without a hit: at the top dose activity change, negative = inhibition, hits mostly inhibitors | 340,000 tested, 0.4% active; active = falling curve of any shape with a large fitted effect; inconclusive = falling curve, mostly with a smaller effect; inactive = flat or rising curve; cell line not stated here;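 also: intracellular cAMP measured with PDE inhibitor Ro 20-1724 present during compound exposure; potency is read from the fitted curve at half-maximal effect; % is scaled to controls: 0 for no effect and ±100 for the full control effect; nearly all actives have a fitted effect of over 65% in size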
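Measurement of cellular cAMP by homogeneous time-resolved fluorescence following a 30 min compound exposure at 37C. The PDE inhibitor […] was present throughout; the assay buffer was DPBS with 0.05% BSA and 0.005% Tween 20.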
TRPV1 potentiator – HTS Assay for Compounds that Act as Potentiators of the Vanilloid Receptor 1; AID 540277, 2011; potentiation, % at 8.33 µM; TRPV1-expressing cells, Fluo-8 calcium influx, capsaicin EC20 potentiation; host cell line not named in the record; control for the full effect not named in the record; 320,000 tested, 0.02% active; active means potentiation above 80%; inconclusive means 30% to 80%; inactive means below 30%; also: 0% is about no effect
Target sequence (Q8NER1 whole entry, looked up): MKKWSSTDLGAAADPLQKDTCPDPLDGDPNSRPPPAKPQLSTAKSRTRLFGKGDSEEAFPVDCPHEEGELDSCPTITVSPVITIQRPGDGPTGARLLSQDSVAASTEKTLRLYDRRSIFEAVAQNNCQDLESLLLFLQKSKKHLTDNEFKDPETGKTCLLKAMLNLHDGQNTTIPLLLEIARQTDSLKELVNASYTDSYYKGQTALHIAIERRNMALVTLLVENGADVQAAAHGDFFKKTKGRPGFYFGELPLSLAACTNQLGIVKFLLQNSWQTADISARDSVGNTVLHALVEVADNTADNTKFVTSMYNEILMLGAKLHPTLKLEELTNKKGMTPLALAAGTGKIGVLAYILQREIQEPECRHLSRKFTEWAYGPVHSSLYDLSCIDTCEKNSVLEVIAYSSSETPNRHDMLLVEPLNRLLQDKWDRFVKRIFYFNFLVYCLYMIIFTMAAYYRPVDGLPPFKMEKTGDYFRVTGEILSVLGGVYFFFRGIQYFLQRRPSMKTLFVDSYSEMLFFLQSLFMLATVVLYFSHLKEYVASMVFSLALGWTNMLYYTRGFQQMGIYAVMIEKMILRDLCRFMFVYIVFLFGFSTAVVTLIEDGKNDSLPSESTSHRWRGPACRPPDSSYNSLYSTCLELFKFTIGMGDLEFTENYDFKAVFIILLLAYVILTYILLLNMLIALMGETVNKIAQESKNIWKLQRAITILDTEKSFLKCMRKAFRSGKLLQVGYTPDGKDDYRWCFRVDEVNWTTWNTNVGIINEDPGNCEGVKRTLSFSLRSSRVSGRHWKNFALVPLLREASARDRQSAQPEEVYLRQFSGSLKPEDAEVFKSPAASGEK
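TRPV1-expressing cells were cultured overnight at 35.5C and loaded with Fluo-8 calcium dye for 40 to 90 min at room temperature. After a 10 s baseline, compound was added and calcium influx was read kinetically for 3 min (ex 480/em 520 nm).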
CtBP-E1A inh – qHTS Assay for Inhibitors of the CtBP/E1A Interaction | AID 651724, 2012 | 340,000 tested, 0.49% active | activity change, % (test concentration not listed) | AlphaScreen GST-E1A/His-CtBP binding, 1536-well; stronger effect = lower value; control for the full effect not named in the record | CtBP / adenovirus E1A interaction (AlphaScreen); in the data active means activity change below about -65%; inconclusive means about -30% to -65%; inactive means above about -30%; also: % is scaled to controls: 0 for no effect and ±100 for the full control effect; compound concentration not given in the record
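In 5 uL wells, 23 nL compound meets equimolar GST-E1A and His-CtBP (5X stock 125 nM each) for 2 h, 37 °C. Beads (5X, 50 ug/mL) then 1 h, 37 °C, dark.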
Sfp inh – qHTS Assay for Inhibitors of Bacillus subtilis Sfp phosphopantetheinyl transferase (PPTase). 4'-phosphopantetheinyl transferase ffp (Bacillus subtilis), Q9F4F7. Biochemical Sfp PPTase activity, qHTS. Potency, µM, for the others: max response, negative = inhibition, usual class: inhibitors. 310,000 tested, 3.5% active; active = well fitted inhibition curve with a large enough effect; inconclusive = small, poorly fitted or top-dose-only effect, or another doubt; inactive = no such curve, though single readings can be large or run the other way;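 also: the enzyme is Sfp with the accession as filed and its product quenches rhodamine fluorescence; potency is read from the fitted curve at half-maximal effect; 0% = enzyme reaction without inhibitor and -100% = no enzyme wells; top concentration of the series not given in the record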
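Reaction rates are the 30-min fluorescence difference (ex 525, em 598 nm) in wells containing 15 nM Sfp, 5 uM rhodamine-CoA and 12.5 uM BHQ-2-YbbR at pH 7.6 with 10 mM MgCl2.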
Menin MLL FP FL – qHTS Assay for Inhibitors Targeting the Menin-MLL Interaction in MLL Related Leukemias: Competition With Fluorescein Labeled MLL-derived Peptide; Fluorescence polarization, fluorescein-MLL peptide displacement from menin; FP activity change, % at 61.4 µM; 290,000 tested, under 10 active; AID 1766, 2009; inconclusive = falling polarisation curve, or a change in total fluorescence; inactive = total fluorescence flat and polarisation flat or rising; no compound was filed as active; the % refers to the polarisation; negative = inhibition;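 also: % of control where 0% means no effect; inhibitors lower the polarisation; unlabelled MLL peptide was the positive control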
Active calls of the source: *; u = inconclusive; x = no result given; & = joins results of further samples; [ ] = remark or other dose.

SMILES	ClpP mod	gsp ag	gsp antag	TRPV1 potentiator	CtBP-E1A inh	Sfp inh	Menin MLL FP FL
O=C(Nn1c(-c2ccccc2)nc2ccccc2c1=O)c1ccc([N+](=O)[O-])cc1	-7.9%	15%	2%	0	-3	0%	7.7
O=C(N/N=C/c1ccncc1)c1ccccn1	2.0%	1%	8%	-10	-14	u	-14
Cc1ccc(OC(=O)c2ccncc2)c(C)c1	0.5%	-3%	4%	-1	x	9%	-8.2
Cc1cc(-c2nnc(SCC(=O)Nc3ccc(Cl)cn3)n2N)n[nH]1	-2.2%	-67%[inhibitor]	0%	-8	-4	1%	x
CSc1nnc(N(CCC#N)CCC#N)s1	1.1%	25%	9%	-12	4	7%	-3.2
CCOC(=O)c1cccc(NC(=O)CN(c2ccc(OC)cc2)S(=O)(=O)c2c(C)noc2C)c1	-1.1%	-92%[inhibitor]	-12%	-2	4	20%	2.5
O=C(c1cc(-c2ccco2)nc2ccccc12)N1CCCC(C(F)(F)F)C1 (configuration not stated)	3.4%	-4%	-17%	-3	0	x	x
COc1cccc(C=C2SC(=S)NC2=O)c1	1.8%	4%	-19%	x	13	x	x
C[C@@H]1CN([C@H](C)CO)S(=O)(=O)c2ccc(Br)cc2O[C@H]1CN(C)C(=O)Cc1ccccn1	-3.5%	7%	x	x	6	x	x
Cc1ccc(OCCOc2cccc(/C=N/NC(N)=O)c2)cc1	x	4%	10%	-28	4	10%	-7.6
Cc1cccc(CN2CCN(c3ncccn3)CC2)c1	0.1%	3%[15.4 µM]	7%	-31	-1	u	-0.1
CCn1cc(/C=C(\NC(=O)c2ccccc2OC)C(=O)N2CCN(C)CC2)c2ccccc21	-0.7%	-35%[inhibitor]	-1%	5	0	20%	-7.7
CC(CNC(=O)CCc1nnc(CCC2CCCCC2)o1)c1ccccc1 (configuration not stated)	x	-17%	-11%	-1	0	3%	-1.3
O=C(NCC(=O)N(Cc1ccccc1)C(C(=O)NCC1CCCO1)c1ccccc1)c1ccco1 (configuration not stated)	x	8%[15.4 µM]	-2%	12	4	12%	x
COc1ccc(NC(=O)N(C)C[C@H]2Oc3c(NC(=O)Nc4c(C)noc4C)cccc3C(=O)N([C@H](C)CO)C[C@@H]2C)cc1	-4.1%	x	7%	x	-17	x	x
Cc1ccc(C(=O)Oc2cccc(-n3cnnn3)c2)cc1	x	u	1%	-3	13	-5%	0.4
Cc1[nH]n(C)c(=O)c1C(=O)c1c(-c2c(Cl)cccc2Cl)noc1C	x	8%[15.4 µM]	5%	-29	2	8%	0.4
O=C(O)c1ccc(S(=O)(=O)N(Cc2ccccc2)C2CCCCC2)cc1	-1.1%	11%	8%	14	-8	16%	-1.6
CCN(CC)S(=O)(=O)c1ccc(C(=O)OCC(=O)NC2CCCC2)cc1	x	u	7%	-19	4	3%	-0.8
Nn1c(SCC(=O)NC2CCS(=O)(=O)C2)nnc1-c1cccs1 (configuration not stated)	-4.8%	-48%[inhibitor]	10%	-4	0	21%	-6.6
C=CCNC(=S)Nc1cccc([N+](=O)[O-])c1	0.0%	u	4%	-26	x	u	-9.0
Cc1ccc(C=Cc2ccccn2)cc1	-15%	u	x	x	3	x	x
CCn1nnc(NC(=O)CSc2ccc(Cl)cc2)n1	-2.5%	5%	10%	3	1	0%	1.1
COc1cccc(CNC(=O)COC(=O)c2cccc(S(=O)(=O)N3CCN(C(C)=O)CC3)c2)c1	0.2%	u	10%	5	5	x	x
COc1cc(O)sc1C=Nc1ccc(Cl)cc1Cl	1.0%	u	12%	3	x	5%	-0.3
CC(C)CNC(=O)COC(=O)CCC(=O)c1cccs1	-0.8%	-4%	-1%	6	x	7%	0.0
CCC1c2ccccc2C(=O)C1C(N)=O (configuration not stated)	-14%	14%	11%	x	10	x	x
O=C(Nc1ccccc1)c1ccccc1OCc1ccc(S(=O)(=O)N2CCOCC2)cc1	x	13%	4%	10	6	-23%	-1.6
COc1ccc(CCC(=O)NCc2ccc3c(c2)OCO3)cc1	x	20%	3%	-3	-28	12%	1.8
COc1ccccc1NS(=O)(=O)c1cc(NC(=O)CNC(=O)c2cc(C)cc(C)c2)ccc1C	-0.8%	14%	6%	-6	-20	-1%	3.6
COc1ccc(C)cc1NC(=O)Nc1ccc(C(=O)N2CCCC2)cc1	0.8%	13%	-21%	5	2	-5%	x
COc1ccc(Cc2nnc(NC(=O)c3ccc(C)cc3)s2)cc1OC	x	-25%	5%	8	-3	-10%	0.3
O=C(CCS(=O)(=O)Cc1ccccc1)Nc1nc2c(s1)CCCC2	-0.6%	2%	24%	-8	9	13%	0.4
O=C(CCN1C(=O)/C(=C/c2ccc(Cl)cc2)SC1=S)Nc1cccc(C(=O)O)c1	0.1%	-2%[15.4 µM]	11%	-1	0	-1%	6.0
COCCCNC(=O)CCc1nnc(Cc2ccc(-c3ccccc3)cc2)o1	x	-5%	-5%	4	2	7%	-1.8
COCCCNc1nc2c(c(=O)n(Cc3ccc(Cl)cc3)c(=O)n2C)n1C	0.4%	-3%	-2%	-8	x	22%	-6.3
COC(=O)c1c(NC(C)=O)sc(C(=O)Nc2ccccc2F)c1C	x	19%[15.4 µM]	17%	-8	8	71µM*	2.3
O=C(COC(=O)c1cccs1)NCc1cccs1	x	-8%[15.4 µM]	2%	14	5	11%	-1.3
O=C(CSc1ncn[nH]1)Nc1ccc(OCc2ccccc2)cc1	0.4%	u	-8%	0	-6	-4%	1.9
O=C(c1ccc(Br)o1)N1CCN(c2ncccn2)CC1	-6.4%	0%	1%	-5	1	18%	1.3
CCOc1ccc(N2CC(C(=O)NC(C)C)CC2=O)cc1 (configuration not stated)	-1.8%	-72%[inhibitor]	11%	x	-3	21%	-1.0
CC1CCc2cc(F)ccc2N1C(=O)c1cc2nc(-c3ccco3)cc(C(F)(F)F)n2n1 (configuration not stated)	-3.2%	15%	-26%	-21	1	-9%	1.2
CCOc1ccc(NC(=O)Cn2c(=O)n(CCCC(=O)NC3CCN(Cc4ccccc4)CC3)c(=O)c3ccccc32)cc1	x	5%	8%	u	4	10%	-0.3
CN=C1S/C(=C\c2cccc(Cl)c2Cl)C(=O)N1C	0.7%	15%	-1%	x	x	x	x
COc1cccc(S(=O)(=O)NCC(=O)Nc2ccc(C(C)(C)C)cc2)c1	-1.4%	-9%	-4%	-4	1	2%	0.2
CC(C(=O)Nc1ccc2c(c1)OCO2)N(C)CC(=O)Nc1ccccc1Cl (configuration not stated)	0.5%	-25%	-2%	x	-1	x	x
COc1cc(NC(=O)c2ccccc2)c(OC)cc1NC(=O)Cc1cccs1	x	-6%	-11%	3	-19	-26%	16
CCOc1cc(NC(=O)c2ccco2)c(OCC)cc1NC(=O)COc1ccccc1C	-3.9%	-14%	12%	x	0	x	x
CCCCCCCCC(=O)N/N=C(\C)c1cccnc1	-1.2%	5%	2%	-15	7	7%	5.1
Cn1c2c(c(=O)n(C)c1=O)C(c1ccc(Cl)cc1)C(C#N)=C(N)O2 (configuration not stated)	-2.6%	u	-2%	-6	3	-14%	13
COc1ccc(OCc2nnc(SCC(=O)N3CCCc4ccccc43)n2-c2ccc(C)cc2)cc1	-0.7%	-22%	-11%	-10	-25	0%	2.1
COC(CNS(=O)(=O)c1ccc(S(=O)(=O)NC2CC2)cc1)OC	1.2%	-5%	17%	12	11	27%	-1.1
Cc1cc(C)nc(SCC(=O)Nc2ccc(S(=O)(=O)NCCO)cc2)n1	-0.2%	4%	7%	11	2	14%	2.5
OC(CCCN1CCCCC1)(c1ccccc1)c1ccccc1	-2.9%	x	7%	3	-10	24%&13%	-2.0
CC(=O)C[C@H]1c2cc(C(F)(F)F)ccc2S(=O)(=O)N1C1CCCC1	0.7%&2.7%	-45%[inhibitor]	-4%	x	6	x	x
O=C(N/N=C/c1ccc([N+](=O)[O-])o1)C(O)c1ccccc1 (configuration not stated)	1.8%	3%	16%	-4	-7	6%	2.2
O=C(O/N=C1\CCCc2ccccc21)c1cccs1	-20%	-6%[15.4 µM]	0%	-5	-1	-1%	3.3
COc1ccc(/C=N/NC(=O)c2cccnc2)cc1Cn1nc([N+](=O)[O-])c(Br)c1C	x	x	x	4	x	3%	-1.7
CC1CN(CCOc2ccc(F)cc2)CC(C)O1 (configuration not stated)	1.5%	-25%	15%	-3	10	-20%	4.4
Cc1ccc(S(=O)(=O)N2CCOCC2)cc1NC(=O)CSc1nnnn1C	x	u	8%	0	7	9%	-1.7
The list goes on:
SMILES	ClpP mod	gsp ag	gsp antag	TRPV1 potentiator	CtBP-E1A inh	Sfp inh	Menin MLL FP FL
O=C(CCNC(=O)c1ccc(Br)cc1)Nc1nc2ccccc2[nH]1	x	-14%[15.4 µM]	12%	1	6	x	x
O=C(CN1CCN(c2ccccn2)CC1)Nc1cccc(S(=O)(=O)N2CCOCC2)c1	x	3%[15.4 µM]	-3%	1	-16	-4%	1.3
O=C(CNC(c1ccccc1)c1ccccc1)Nc1c(F)cccc1F	-0.7%	-10%	-7%	-3	10	7%	-1.0
N#CC1=C(N)OC2=C(C(=O)CC(c3ccccc3)C2)C1c1ccc2c(c1)OCO2 (configuration not stated)	-8.7%	-11%	u	16	-13	-6%	2.8
COc1ccccc1C=NN=C(N)C(N)=NN=Cc1ccccc1OC	1.0%	-20%	-18%	x	-5	x	x
Cc1cc(=O)[nH]c(N/N=C/c2ccc(-c3ccc([N+](=O)[O-])cc3)o2)n1	x	-11%	-6%	26	-74*	-22%	17

Retrieved by structure from the list above:
SMILES	ClpP mod	gsp ag	gsp antag	TRPV1 potentiator	CtBP-E1A inh	Sfp inh	Menin MLL FP FL
O=C(O/N=C1\CCCc2ccccc21)c1cccs1	-20%	-6%[15.4 µM]	0%	-5	-1	-1%	3.3
COc1cccc(S(=O)(=O)NCC(=O)Nc2ccc(C(C)(C)C)cc2)c1	-1.4%	-9%	-4%	-4	1	2%	0.2

High-throughput results as filed in PubChem.
